Screening results as filed in PubChem.
rRNA inh HTS: inhibits bacterial ribosomal RNA function over humanized ribosomes; GFP signal change (wild-type ribosome), % (test concentration not listed); AID 720706; 1.6% of 350,000 active; E. coli WT GFP vs humanized-ribosome RFP mutants, fluorescence, 24 h; stronger effect = lower value; DMSO median 0, no signal -100;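 active means significant combined selectivity score with lowered wild-type GFP, culture density cut under 30%, mutant RFP and density less affected; inactive means any of these conditions unmet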; further: one replicate is shown; some compounds called inactive have numbers as strong as hits
Ecoli growth: inhibitors of Escherichia coli growth; OD600 absorbance (concentration not given with the values); OD600, 23 h; stronger effect = lower value; 0.21% of 330,000 active;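 active means OD600 absorbance below the run mean of sample wells minus 3.6 SD, in any replicate, cut at about 0.56 in these data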;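 further: stock transfer was 300 nL into about 60 µL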
T cruzi repl: blocks replication of Trypanosoma cruzi | T. cruzi beta-gal in NIH3T3, luminescence, 90 h | inhibition, % (test concentration not listed) | 1.4% of 300,000 active;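 active means mean inhibition across valid replicates above about 55%, limit read from the data; inconclusive means mean below that limit but half or more replicates reach it; inactive means mean below it, under half of replicates reach it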;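 further: signal also drops with host cell toxicity which is not excluded here; 0% = plate median of DMSO wells and 100% = zero luminescence signal; higher percent means less beta-gal luminescence so fewer parasites; stock transfer was 50 nL into about 50 µL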
FGF22 binding: binders of recombinant human FGF22 by thermal shift | Q9HCT0 | SYPRO orange fluorescence; percent of sucrose octasulfate shift, DMSO zero | calls only at 9.99 µM | 1.5% of 340,000 active | AID 651658;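 active means melting point raised past a set limit in the mean and every replicate; inconclusive means no clear call; three in four hits are not shown here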
Target sequence (Q9HCT0 whole entry, looked up): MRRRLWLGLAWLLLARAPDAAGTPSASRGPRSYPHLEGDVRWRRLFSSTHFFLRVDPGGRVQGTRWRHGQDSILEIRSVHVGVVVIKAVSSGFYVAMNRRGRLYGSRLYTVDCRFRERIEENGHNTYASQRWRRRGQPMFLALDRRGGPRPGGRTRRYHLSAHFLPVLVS
Beta cell apopt: blocks beta cell apoptosis; INS-1E cytokine-induced death, ATP luminescence, 48 h; percent of positive-control rescue, neutral wells zero; protection from apoptosis, % (no concentration beside the values); 0.8% of 300,000 active; AID 435005;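 active means all replicates at 75% or more, or half of them and the mean; inconclusive means half reach 75% but not the mean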;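 further: 0% = cytokine-treated negative control wells and 100% = positive control rescue; higher means more ATP so stronger rescue from cytokine killing; wells of about 40 µL received 100 nL stock; the first replicate is given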
UCH37 inh: inhibitors of human deubiquitinating enzyme UCH37; Q9Y5K5; purified proteasome/UCH37, Ub-AMC cleavage fluorescence; inhibition, % (concentration not given with the values); 0.33% of 330,000 active;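 active means mean of two replicates above 20%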;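 further: 0% = compound-free wells with enzyme and 100% = wells lacking proteasome; stock transfer was 100 nL into about 20 µL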
Target sequence (Q9Y5K5 whole entry, looked up): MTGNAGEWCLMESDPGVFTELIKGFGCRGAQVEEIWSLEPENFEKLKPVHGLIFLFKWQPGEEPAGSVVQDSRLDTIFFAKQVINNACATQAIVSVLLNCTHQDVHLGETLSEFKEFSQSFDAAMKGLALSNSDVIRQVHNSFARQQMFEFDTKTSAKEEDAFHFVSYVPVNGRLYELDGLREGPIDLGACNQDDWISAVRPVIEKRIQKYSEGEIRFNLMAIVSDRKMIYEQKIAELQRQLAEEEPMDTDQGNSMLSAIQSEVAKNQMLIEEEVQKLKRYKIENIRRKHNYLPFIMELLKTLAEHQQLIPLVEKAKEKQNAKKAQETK
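Material: Human UCH37 enzyme supplied as purified proteasome complex | Schedule: 30 min compound-proteasome preincubation then 25 min substrate reaction, room temperature | Detection: AMC fluorescence from Ub-AMC cleavage, excitation 355 nm, emission 460 nm | Benchmarks: Wells without proteasome as full block, compound-free enzyme plus substrate as uninhibited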
AF4-AF9 inh: blocks AF4 peptide binding to human AF9; AID 651704; inhibition, % at 10 µM; 0.47% of 350,000 active; AlphaScreen, biotin-AF4 peptide binding to FLAG-AF9; P42568;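 active means every replicate reaching a set inhibition limit, whatever the replicate mean, cut at about 25% in these data; inconclusive means mean inhibition reaches that limit but some replicates miss it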;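 further: 0% = plate neutral control median and 100% = total signal loss; the record names both 10 and 1 µM as test concentration; the first replicate is given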
Target sequence (P42568 whole entry, looked up): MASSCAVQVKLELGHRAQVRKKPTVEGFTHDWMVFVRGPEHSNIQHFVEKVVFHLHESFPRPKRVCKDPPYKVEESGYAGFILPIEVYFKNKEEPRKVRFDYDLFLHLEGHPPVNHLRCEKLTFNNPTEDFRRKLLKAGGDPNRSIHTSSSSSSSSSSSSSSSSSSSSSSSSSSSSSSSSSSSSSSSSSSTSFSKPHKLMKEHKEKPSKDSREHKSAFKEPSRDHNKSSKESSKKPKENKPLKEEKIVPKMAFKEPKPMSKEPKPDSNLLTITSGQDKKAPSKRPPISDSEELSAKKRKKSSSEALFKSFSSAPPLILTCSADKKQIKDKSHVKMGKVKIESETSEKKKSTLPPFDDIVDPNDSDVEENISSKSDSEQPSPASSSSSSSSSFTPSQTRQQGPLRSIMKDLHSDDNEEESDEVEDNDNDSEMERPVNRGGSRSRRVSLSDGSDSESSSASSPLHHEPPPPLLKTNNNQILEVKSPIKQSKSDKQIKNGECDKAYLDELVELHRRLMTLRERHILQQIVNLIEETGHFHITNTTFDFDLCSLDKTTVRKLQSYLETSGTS
A1 inh: inhibitors of the anti-apoptotic protein A1, read as caspase activation. caspase activation, % (test concentration not listed). MEF A1-2A-BIM cells, Caspase-Glo 3/7 luminescence, 3 h; percent of clofoctol response, vehicle zero. 0.066% of 330,000 active;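 active means over half of replicate activation scores above 10%, or exactly half above 10 with the replicate mean above 10; inconclusive means replicate mean below 10 yet half the replicates above 10; inactive means over half of replicates below 10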;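 further: wells of about 30 µL received 50 nL stock; many hits fall short of the cut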
rRNA inh HTS OD600: also measured in rRNA inh HTS; calls as there; OD600 change, %; measured here: OD600 growth;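 optical density of the mix in the first replicate; 0 = DMSO median and -100 = no signal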
rRNA inh HTS RFP: recorded beside rRNA inh HTS, whose call it bears; RFP signal change, %; measured here: RFP humanized mutant strains;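 first replicate; 0 = DMSO median and -100 = no signal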
Starred values were filed as active, the others as inactive; i = inactive; ? = inconclusive; / = not tested or not shown; & = joins results of further samples. This is a subset. The share of hits here may be higher or lower than overall.

SMILES	rRNA inh HTS	rRNA inh HTS OD600	rRNA inh HTS RFP	Ecoli growth	T cruzi repl	FGF22 binding	Beta cell apopt	UCH37 inh	AF4-AF9 inh	A1 inh
C/C(N)=C(/C#N)C(=O)COC(=O)CNC(=O)c1ccc(Cl)cc1Cl	7.6	7.5	0.2	0.696	-7.3	i	-5.4	-0.1	-1.9	-1.5
O=C(CCc1nc2ccccc2c(=O)[nH]1)N1CCN(S(=O)(=O)c2cccc(F)c2)CC1	8.0	9.6	3.9	0.717	-3.8	i	1.4	-3.4	-1.7	-0.4
CCOc1ccc(N(CC(=O)NC2CCCCC2)S(=O)(=O)c2ccccc2)cc1	-3.7	1.0	-4.7	0.7	-0.6	i	-1.7	1.0	0.2	-0.5
CC(C)=CCCC1(C)C=Cc2c(c(C)cc3c2[nH]c2cc(O)ccc23)O1 (centres undefined)	/	/	/	0.663	30.1	i	/	1.6	4.5	1.1
CS(=O)(=O)N1CC(C(=O)NN)Oc2ccc(Cl)cc21 (centres undefined)	/	/	/	0.681	-7.8	/	0.4	0.8	/	0.0
CC(NCc1ccc(-c2ccccc2)cc1)C(O)c1ccccc1 (centres undefined)	-50.8	-80.8	-27.2	0.584	11.1	i	7.7	6.1	8.1	0.3
N=c1c(-c2nc3ccccc3[nH]2)cc(C(=O)c2ccco2)nn1-c1ccccc1	13.2	5.5	-0.4	0.684	11.9	i	23.4	4.6	-6.3	-0.5
COc1ccc(C)cc1NC(=O)Cn1cnnn1	/	/	/	0.667	0.7	i	-3.4	4.6	-0.4	0.5
COc1ccc(NC(=O)C2=Cc3ccccc3OC2)cc1	-3.7	-2.5	-1.2	0.664	6.5	i	2.4	2.2	1.1	0.5
Cc1ccccc1-c1nc(SCc2ccccn2)c2c(=O)n(C)c(=O)n(C)c2n1	7.0	11.7	2.9	0.701	9.0	i	-2.6	4.0	-1.1	0.1
CC(C)(C)[C@H]1COC(=O)CC/C=C\C[C@H](CC(=O)N(CCO)Cc2ccccc2)C(=O)N1	2.7	11.9	-7.6	/	/	i	3.2	0.7	-2.7	-1.2
Nc1cnccc1Oc1cccc(C(F)(F)F)c1	0.0	-4.9	2.3	0.614	9.8	i	-6.5	5.6	/	0.6
Cc1noc(C)c1NC(=O)N(C)C[C@H]1Oc2ccc(NC(=O)C3CC3)cc2C(=O)N([C@H](C)CO)C[C@@H]1C	6.3&9.8	5.5&4.2	-0.6&-1.0	0.758	/	i	0.9	-32.2	-2.8&-2.5	1.5
COC(=O)CSc1nnc(CNc2ccc(Cl)cc2)n1-c1ccccc1	/	/	/	0.733	-1.8	/	-3.9	0.3	/	-0.2
Cc1ccc(NC(=O)COC(=O)c2ccc(S(=O)(=O)N3CCCC3)cc2)cc1	0.2	3.2	1.4	0.71	/	i	/	5.1	-2.7	/
COCCn1ccc2c(OCC(=O)Nc3cc(OC)ccc3OC)cccc2c1=O	-7.0	2.6	-2.0	0.661	14.0	i	/	-1.8	0.9	-0.1
O=C(NCc1cccs1)c1noc2c1CCCC2	/	/	/	0.638	-11.6	/	-3.4	3.3	/	-0.8
COc1ccc(C(=O)CC(=O)C(=O)Nc2ccc(C)c(C)c2)cc1	-1.2	3.1	-1.3	0.649	-6.8	i	-5.6	4.3	-18.3	-0.3
C=CCN(CC=C)C(=S)Nc1ccc(OC)c(OC)c1	10.1	10.8	-0.6	0.71	-8.2	i	-7.2	4.7	-0.7	0.4
[N-]=[N+]=NC(c1ccccc1)c1nc2ccccc2[nH]c1=O (centres undefined)	-5.4	3.8	0.4	0.642	-5.8	i	-0.9	-32.3	-1.0	0.0
COC(=O)C1=C(N)OC2=C(C(=O)CCC2)C1c1ccccc1OC (centres undefined)	10.4	13.4	0.5	0.708	-11.7	i	-3.1	2.3	1.1	0.5
COc1ccc(NC(=O)/C=C/c2ccc(S(=O)(=O)N3CCOCC3)cc2)cc1	4.7	14.6	-1.1	0.665	/	i	1.1	3.5	-0.1	0.1
O=C(N/N=C1\CC2CC=CC12)c1ccc(O)cc1 (centres undefined)	2.6	-8.2	-2.1	/	-4.8	i	-1.9	/	0.9	0.9
Cc1ccc(C)c(C(=O)COC(=O)c2nn(C)c(=O)c3ccccc23)c1	-6.5	-8.3	6.1	0.717	/	i	-4.1	3.1	-1.1	-0.7
CCCCN(CCCC)C(=O)CN(C)S(=O)(=O)c1ccc2c(c1)n(C)c(=O)c(=O)n2C	4.7	8.8	-6.5	0.741	-5.7	i	/	0.5	7.4	-0.4
Cc1ccc(C)c2nc(SCC(=O)N3CCCc4ccccc43)c(C#N)cc12	/	/	/	0.777	-6.4	/	-6.4	-1.3	/	/
Cc1ccc(S(=O)(=O)/N=C(/Nc2nc(C)cs2)c2ccccc2)cc1	2.6	-10.5	5.2	0.664	/	i	1.6	1.7	-2.8	0.0
CCc1nnc(NC(=O)C2=CCN(S(=O)(=O)c3ccccc3)CC2)s1	2.3	-0.4	-8.4	0.656	-6.3	i	0.2	1.2	3.3	0.5
O=C(COc1ccccc1F)NC1CC1	2.3	9.8	8.2	0.663	-20.1	i	-2.5	0.2	-38.7	1.6
COC(=O)[C@H](C)NC(=O)COc1ccccc1	-0.6	4.2	-2.9	0.722	-17.9	/	-0.8	1.9	/	-0.4
C=CCSc1nnc(-c2ccc(Cl)cc2Cl)o1	/	/	/	0.654	4.0	/	5.0	7.1	/	-6.2
C/C(=N/NC(=O)C(O)(c1ccccc1)c1ccccc1)c1ccc([N+](=O)[O-])o1	-34.6*	-20.4*	-3.1*	/	75.0*	i	-1.8	/	2.2	?
COCc1c(C(=O)OCc2nc(N)nc(Nc3ccccc3C)n2)oc2ccccc12	/	/	/	0.713	-8.3	/	2.1	0.3	/	-0.3
CC(C(=O)NC1CCCC1)N(Cc1ccc2c(c1)OCO2)C(=O)c1snc(C(N)=O)c1N (centres undefined)	/	/	/	0.679	-6.0	/	-6.2	-7.2	/	0.2
O=C(CNC(=O)c1cccs1)c1ccc(F)cc1	/	/	/	0.64	-10.0	/	-5.4	7.0	/	-3.7
COc1cccc(/C=N/NC(=O)CN(CCc2ccccc2)S(=O)(=O)c2ccc(NC(C)=O)cc2)c1	-10.8	-7.2	-2.2	/	-2.3	i	-7.4	/	1.1	0.6
Cc1ccc(-n2c(N)c(C(=O)NCc3ccco3)sc2=S)cc1	/	/	/	0.738	4.0	/	2.6	10.8	/	1.0
CNC(=S)Nc1cccc(Cl)c1C	3.4	5.0	-1.4	0.641	-3.3	i	-5.2	3.8	-0.3	0.6
COc1cc(S(=O)(=O)N2CCOCC2)cc(C(=O)OCC(=O)NCc2ccco2)c1OC	16.3	13.4	0.8	0.695	/	i	-4.0	5.5	?	-0.8
CCN(CC)CCN1C(=O)C(=O)/C(=C(/O)c2ccc(S(=O)(=O)N3CCOCC3)cc2)C1c1ccccc1 (centres undefined)	20.3	3.9	4.9	0.644	-3.7	i	-2.2	2.0	0.0	-1.0
O=C(NCC1COc2ccccc2O1)C1C2C=CC3(CN(Cc4cccs4)C(=O)C13)O2 (centres undefined)	/	/	/	0.696	-4.5	/	2.5	1.5	/	1.1
Cc1[nH]c2ccccc2c1C(=O)COC(=O)c1c(-c2ccccc2Cl)noc1C	/	/	/	0.688	3.6	/	4.0	3.6	/	-0.3
CN1CCN(c2nc3c(c(=O)n(C)c(=O)n3C)n2Cc2ccc(F)cc2)CC1	/	/	/	0.71	-7.4	i	-2.1	5.7	1.5	0.1
Cc1cc(C)n(-c2nnc(NCc3ccc(Cl)cc3)nn2)n1	4.2	-4.2	2.8	0.679	7.3	i	38.6	5.3	3.8	0.1
Cc1cc(F)ccc1NC(=O)CCCN(C)S(=O)(=O)c1ccc(F)cc1	8.2	8.2	4.0	0.66	2.3	i	2.2	3.2	-1.9	-0.1
CCOC(=O)c1cc(-c2ccccc2)sc1NC(=O)CN1C(=O)NC(CC)(c2ccccc2)C1=O (centres undefined)	4.9	7.7	-0.3	0.752	66.2*	/	-1.8	-31.7	/	-0.8
Cc1cc(C)n2nc(SCC(=O)NC(=O)NCc3ccco3)nc2n1	24.5	11.7	-0.6	0.707	-11.4	i	-2.5	5.7	-0.7	-0.1
Cc1nn2c(-c3ccc(F)cc3)ccnc2c1Br	10.7	7.8	-2.5	0.697	-1.1	i	-11.9	-3.6	3.2	0.4
Cc1cc2nc(-c3ccc[nH]c3=O)n(Cc3ccc(F)cc3)c2cc1C	-10.8	-7.2	3.6	0.597	5.6	i	4.8	i	-2.7	-0.2
Cc1cccc(NC(=O)c2nc[nH]c2C(=O)Nc2ccccc2[N+](=O)[O-])c1	16.1	18.3	-0.4	0.724	-17.1	i	9.1	9.8	-2.5	-0.3
COc1ccc2c(c1)c(C(=O)CN1CCCCC1)c(C)n2C	10.8	9.8	-2.3	0.667	21.9	i	/	6.2	1.8	0.3
O=C(/C=C/c1ccccn1)c1cc(Cl)cc(Cl)c1O	-2.2	-22.2	3.6	0.674	-10.3	/	-21.8	-7.0	7.8	-0.7
COc1ccc(NS(=O)(=O)c2cc(NC(=O)COc3ccccc3)ccc2N2CCOCC2)cc1	3.7	3.7	1.5	0.702	/	i	9.5	1.9	1.5	1.0
COc1cc(OC)c(N(C)S(=O)(=O)c2cccc(C(=O)Nc3nccs3)c2)cc1Cl	-32.8	-27.9	-0.1	0.662	/	i	-6.5	2.4	1.5	0.8
COC(=O)NC(C)N1C(=O)C2C3C=CC(C3)C2C1=O (centres undefined)	1.6	1.1	0.0	0.677	-19.0	i	-6.4	5.8	-1.1	-0.4
O=C(C1CCC1)N1CCCc2cc(S(=O)(=O)N3CCN(c4ccccc4)CC3)ccc21	-3.4	5.3	-0.9	0.696	21.3	i	2.2	5.0	2.3	0.7
CCCCOC(=O)CCNc1n[nH]c(=O)[nH]c1=O	/	/	/	0.691	-6.3	/	0.7	0.1	/	-0.3
O=C(Nc1ccncc1)c1cccc(S(=O)(=O)N2CCc3ccccc32)c1	-6.2	-36.2	-8.2	0.708	7.6	i	7.7	4.5	-22.6	-0.1
O=[N+]([O-])c1cccc(N/N=C/c2cccc3ccccc23)c1	/	/	/	/	46.9	i	3.1	/	1.4	-1.4
Cc1cccc(C)c1NC(=O)CNC(=O)c1cccc(S(=O)(=O)NCc2cccs2)c1	-0.4	7.7	0.0	0.711	/	i	-5.8	4.2	-3.4	-0.6
Cc1ccc(S(=O)(=O)CCC(=O)OCC(=O)N(C)CC(=O)Nc2ccc(F)cc2)cc1	8.7	11.8	2.6	0.685	-9.9	i	-6.9	0.0	-1.5	-1.1
O=C(c1ccc(-n2cccc2)cc1)N1CCCCC1	-13.7	-10.0	-8.3	0.685	-6.7	i	-3.7	3.2	0.8	-1.8
O=C(NNS(=O)(=O)c1ccccc1F)c1ccccc1-n1cccc1	6.4	7.2	0.0	0.72	-8.8	i	-6.3	5.0	-2.3	0.7
